Compound activity deposited in PubChem by National Center for Advancing Translational Sciences (NCATS).
Cruzain inh noDet: qHTS Assay for Promiscuous and Specific Inhibitors of Cruzain (without detergent); hit rate 2.3% among 200,000; AID 1476, 2009; Potency, µM, inactives show max response, negative = inhibition, usual class: inhibitors; Cruzipain (Trypanosoma cruzi), P25779; purified cruzain, Z-FR-AMC fluorescence, no detergent; active = well fitted curve in the direction sought with a large enough effect; inconclusive = small, poorly fitted or top-dose-only effect, or another doubt; inactive = no such curve, though single readings can be large; an effect the other way counts as inactive or inconclusive;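 also: plate controls were enzyme without inhibitor for no effect and buffer without enzyme for full effect; nearly all actives have a fitted effect of over 40% in size; top concentration of the series not given in the record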
Target sequence (P25779 123-467 limits assumed): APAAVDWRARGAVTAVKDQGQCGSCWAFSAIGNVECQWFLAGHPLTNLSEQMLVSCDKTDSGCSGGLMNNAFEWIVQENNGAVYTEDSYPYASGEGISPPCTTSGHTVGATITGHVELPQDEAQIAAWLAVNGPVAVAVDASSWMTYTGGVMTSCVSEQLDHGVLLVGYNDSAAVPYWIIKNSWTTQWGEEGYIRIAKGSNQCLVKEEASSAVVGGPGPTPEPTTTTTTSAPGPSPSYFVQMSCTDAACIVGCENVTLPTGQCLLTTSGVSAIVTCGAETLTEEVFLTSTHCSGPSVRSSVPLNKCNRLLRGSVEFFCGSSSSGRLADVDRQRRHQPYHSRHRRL
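Purified cruzain at 1.5 nM, pre-incubated 15 min with compound at room temperature in 100 mM sodium acetate pH 5.5, 5 mM DTT, 0.00005% Triton X-100. Reaction started with 2 uM Z-FR-AMC; AMC fluorescence increase over 60 s gives rate.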
SARS PLP yeast: qHTS of Yeast-based Assay for SARS-CoV PLP. AID 485353, 2010. Potency, µM (doses to about 32.9 µM), for inactives: at the highest dose activity, positive = growth rescue. S. cerevisiae expressing SARS-CoV PLpro, growth rescue; control for the full effect not named in the record. hit rate 0.19% among 330,000; also: 0% is about no effect; nearly all actives have a fitted effect of over 55% in size; growth read by luminescence after 48 h
Marburg entry inh: qHTS for inhibitors of binding or entry into cells for Marburg Virus; Marburg virus pseudotyped entry inhibition, cell reporter; control for the full effect not named in the record; about a third of the inactives were read at about 46 µM; Potency, µM (titrated, usually from 37.8 µM), for inactives: at the highest dose activity change, negative = inhibition, usual class: inhibitors; hit rate 1.8% among 300,000; AID 540276, 2011; active = well fitted inhibition curve with a large enough effect; inconclusive = small, poorly fitted or top-dose-only effect, or effect the other way; inactive = flat fitted curve, though single readings scatter; tested in HEK293 cells; about a fifth of its hits are not listed in these tables; also: % is scaled to controls: 0 for no effect and ±100 for the full control effect; luciferase read-out
LASV entry inh: qHTS for Inhibitors of binding or entry into cells for Lassa Virus; Potency, µM (top dose mostly 37.9 µM), without a hit: at the highest dose activity change, negative = inhibition, hits mostly inhibitors; hit rate 1.2% among 300,000; Lassa virus pseudotype entry inhibition, cell reporter; control for the full effect not named in the record; active means well fitted inhibition curve with a large enough effect; inconclusive means small, poorly fitted or top-dose-only effect, or effect the other way; inactive means flat fitted curve, though single readings scatter; tested in HEK293 cells; also: % is scaled to controls: 0 for no effect and ±100 for the full control effect; nearly all actives have a fitted effect of over 50% in size; luciferase read-out
RE007 growth inh: qHTS Assay for Inhibitors of the HIV-1 protein Vpr; S. pombe RE007 Vpr strain, BacTiter-Glo ATP luminescence, 24 h; control for the full effect not named in the record; Potency, µM (top dose mostly 92.2 µM), for the others: at the highest dose activity change, negative = less growth; hit rate 0.21% among 360,000; AID 651644, 2012; active = well fitted falling curve with a large enough effect; inconclusive = small, poorly fitted or top-dose-only effect; inactive = no such curve, though single readings can be large or run the other way;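 also: % is scaled to controls: 0 for no effect and ±100 for the full control effect; nearly all actives have a fitted effect of over 50% in size; the assay follows cell death caused by Vpr and the record does not say whether a fall means rescue or toxicity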
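Fission yeast RE007 carrying one integrated HIV-1 vpr copy, seeded at OD 0.01 in PMG+AL medium with 23 nL pinned compound. Grown 24 h at 30 degrees; viability read by BacTiter-Glo luminescence after 5 min.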
Cruzain Triton: qHTS Assay for Promiscuous and Specific Inhibitors of Cruzain (with detergent). Cruzipain (Trypanosoma cruzi), P25779. Potency, µM, for the others: max response, negative = inhibition, usual class: inhibitors. hit rate 0.43% among 200,000. purified cruzain, Z-FR-AMC fluorescence, 0.01% Triton; active = well fitted curve in the direction sought with a large enough effect; inconclusive = small, poorly fitted or top-dose-only effect, or another doubt; inactive = no such curve, though single readings can be large; an effect the other way counts as inactive or inconclusive;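 also: plate controls were neutral wells for no effect and buffer without enzyme for full effect; nearly all actives have a fitted effect of over 40% in size; top concentration of the series not given in the record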
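In this qHTS format, compounds are incubated with 1.5 nM cruzain for 15 min at room temperature before 2 uM Z-FR-AMC is added. Release of AMC is followed at 360/450 nm, and progress is taken as the 60 s fluorescence difference.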
StopGo reporter: High Throughput Screening for Foot and Mouth Disease Virus Antivirals; human cells with a luciferase reporter of 2A StopGo recoding; control for the full effect not named in the record; Potency, µM (top dose mostly 57.9 µM), without a hit: at the highest dose signal change, negative = less light; hit rate 1.2% among 410,000; AID 1159524, 2015; active = well fitted falling curve with a large enough effect; inconclusive = small, poorly fitted or top-dose-only effect; inactive = no such curve, though single readings can be large or run the other way; tested in HEK293T cells; also: % is scaled to controls: 0 for no effect and ±100 for the full control effect; nearly all actives have a fitted effect of over 45% in size; luciferase light after 4 h
NS1 inh: qHTS Assay for Inhibitors of Influenza NS1 Protein Function; S. cerevisiae slowed by influenza A NS1, growth recovery by OD600; Potency, µM (titrated, usually from 46.1 µM), without a hit: at the highest dose activity, positive = more growth; hit rate 0.4% among 270,000; AID 2326, 2010; also: actives are rising curves; nearly all actives have a fitted effect of over 50% in size
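In this qHTS, NS1 from influenza A is expressed in budding yeast, where it slows growth. Cells are switched from glucose to 2% galactose medium (pH 6.0, -URA), treated with compound, and growth recovery is read at OD600.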
* marks the source's active call; other numbers are inactive results; & = joins results of further samples; [ ] = dose if it differs, or a comment. Unless noted, calls follow the shape of the dose curve; as a rule, active means well fitted rising curve with a large enough effect; inconclusive means small, poorly fitted or top-dose-only effect; inactive means no such curve, though single readings can be large or run the other way. Potency is read from the fitted curve at half-maximal effect.

Results for Cc1ccc2nc3c(cc(S(=O)(=O)c4ccccc4)c(=N)n3Cc3ccco3)c(=O)n2c1 ?
SARS PLP yeast: 1%; Marburg entry inh: inconclusive; LASV entry inh: 2%[46.1 µM]; RE007 growth inh: -17%; StopGo reporter: 34%[activator]; NS1 inh: 4%

Results for Cc1cccc(NC2=CC(=O)OC(C)C2)c1 (stereo not given) ?
Cruzain inh noDet: 0%; SARS PLP yeast: 17%; Marburg entry inh: 22%; LASV entry inh: 2%; RE007 growth inh: 24%; Cruzain Triton: 3.0%; StopGo reporter: -16%; NS1 inh: 1%

How did COC(=O)[C@@]1(Cc2ccc(F)cc2)[C@@H]2[C@@H](CC(=O)[C@H]2CC(=O)C(=O)N(C)C)CN1C(=O)c1ccccc1 do in these assays?
Cruzain inh noDet: inconclusive; SARS PLP yeast: -6%; Marburg entry inh: -10%; LASV entry inh: -26%; RE007 growth inh: -7%; Cruzain Triton: -1.0%&-4.2%; StopGo reporter: -19%; NS1 inh: -28%

How did COc1ccc(C)cc1NC(=S)NC(C)c1ccc(OC)c(OC)c1 (stereo not given) do in these assays?
SARS PLP yeast: -1%; RE007 growth inh: 10%; StopGo reporter: 24%; NS1 inh: -4%

What do the screens show for `Cc1nn(C)cc1S(=O)(=O)Nc1ccc(C(F)(F)F)cc1`?
SARS PLP yeast: 1%; RE007 growth inh: -3%; StopGo reporter: 14%; NS1 inh: 14%

How did C=C(C)COc1ccc(-c2[nH]ncc2-c2ccc(Br)cc2)c(O)c1 do in these assays?
Cruzain inh noDet: -7%; SARS PLP yeast: -133%; Marburg entry inh: 3.3µM*; LASV entry inh: inconclusive; RE007 growth inh: inconclusive; Cruzain Triton: -3.1%; StopGo reporter: -18%; NS1 inh: 22%

Results for Fc1ccccc1N1CCN(Cc2cnc(Cl)s2)CC1 ?
SARS PLP yeast: 0%; Marburg entry inh: -1%[46.1 µM]; LASV entry inh: -15%[46.1 µM]; RE007 growth inh: 61%; StopGo reporter: -16%; NS1 inh: -2%

Results for O=[N+]([O-])c1cc(CS(=O)(=O)Oc2ccc(Cl)cc2)c(O)c([N+](=O)[O-])c1 ?
Marburg entry inh: -2%; LASV entry inh: 19%; RE007 growth inh: -13%; StopGo reporter: 5%

Results for COc1ccccc1N1CC(C(=O)Nc2nnc(SCC(=O)NC(C)C)s2)CC1=O (stereo not given) ?
SARS PLP yeast: -6%; RE007 growth inh: 16%; StopGo reporter: 11%; NS1 inh: 7%

Results for CCn1c(C(C)NC(=O)c2cccs2)n[nH]c1=S (stereo not given) ?
Cruzain inh noDet: -4%; SARS PLP yeast: 14%; Marburg entry inh: inconclusive; LASV entry inh: 9%; RE007 growth inh: 1%; Cruzain Triton: -2.4%; StopGo reporter: -12%; NS1 inh: 8%

What do the screens show for `CCOC(=O)N1CCC(=NNC(=O)COc2ccc(C#N)cc2)CC1`?
Cruzain inh noDet: -19%; SARS PLP yeast: -14%; Marburg entry inh: inconclusive; LASV entry inh: -4%; RE007 growth inh: 6%; Cruzain Triton: -0.4%; StopGo reporter: -15%; NS1 inh: -4%

How did CCOc1ccc(S(=O)(=O)Nc2cccc(OC)c2)cc1 do in these assays?
Cruzain inh noDet: -11%; SARS PLP yeast: -6%; Marburg entry inh: inconclusive; LASV entry inh: -16%; RE007 growth inh: -2%; Cruzain Triton: -3.6%; StopGo reporter: 44%[activator]; NS1 inh: -73%

Results for O=C(Nc1ccc(S(=O)(=O)NCc2ccccc2)cc1)C1CCCCC1 ?
SARS PLP yeast: -4%; Marburg entry inh: -3%; LASV entry inh: 0%; RE007 growth inh: -10%; StopGo reporter: -9%; NS1 inh: 7%

Results for CN(C)S(=O)(=O)N1CCN(S(=O)(=O)N(C)C)CC1 ?
Cruzain inh noDet: 2%; SARS PLP yeast: 3%; Marburg entry inh: -24%; LASV entry inh: 1%; RE007 growth inh: 1%; Cruzain Triton: 3.7%; NS1 inh: -9%

Results for O=C(NCCN1C(=O)C2C3C=CC(C3)C2C1=O)N1CCCCC1 (stereo not given) ?
Cruzain inh noDet: 3%; SARS PLP yeast: 0%; RE007 growth inh: 7%; Cruzain Triton: 4.0%; StopGo reporter: -17%; NS1 inh: 4%

How did Nc1nc2nc(-c3ccccc3)cc(C(F)(F)F)c2s1 do in these assays?
SARS PLP yeast: 0%; Marburg entry inh: 4%[46.1 µM]; LASV entry inh: -24%; RE007 growth inh: -24%; StopGo reporter: -5%; NS1 inh: 2%

Results for COC(=O)[C@@H](c1ccccc1)N(C)S(=O)(=O)c1cccc(S(=O)(=O)N(C)[C@@H](C(=O)OC)c2ccccc2)c1 ?
SARS PLP yeast: -1%; RE007 growth inh: -19%; StopGo reporter: -4%; NS1 inh: 25%

What do the screens show for `O=C(Nc1ccccc1N1CCOCC1)C1CCCO1` (stereo not given)?
SARS PLP yeast: -1%; Marburg entry inh: -12%; LASV entry inh: 3%; RE007 growth inh: -19%; StopGo reporter: -2%

Results for CC(C)NCC(=O)Nc1c2c(nc3ccccc13)CCC2 ?
SARS PLP yeast: 0%; Marburg entry inh: inconclusive; LASV entry inh: -13%[46.1 µM]; RE007 growth inh: 3%; StopGo reporter: -21%; NS1 inh: 0%

Results for COc1ccc(OC)c(C(O)c2coc3ccc(O)c(CN4CCOCC4)c23)c1 (stereo not given) ?
Cruzain inh noDet: 3%; SARS PLP yeast: 12%; Marburg entry inh: 16%; LASV entry inh: inconclusive; RE007 growth inh: 2%; Cruzain Triton: -0.6%; StopGo reporter: -5%; NS1 inh: inconclusive

How did CCCOc1ccc(C(=O)NC(=S)Nc2nc3ccc(C)cc3s2)cc1 do in these assays?
Cruzain inh noDet: 25µM*; SARS PLP yeast: 7%; Marburg entry inh: 2%; Cruzain Triton: 6.8%; NS1 inh: 11%

Results for COc1cc(C(=O)NCc2nnc(SCC(=O)N3CCCc4ccccc43)o2)cc(OC)c1OC ?
SARS PLP yeast: -1%; Marburg entry inh: -9%[46.1 µM]; LASV entry inh: 2%; RE007 growth inh: 3%; StopGo reporter: 5%

What do the screens show for `Cc1ccc(Cl)cc1N1CCN(C(=O)c2cccn3c(=O)c4cc(Cl)ccc4nc23)CC1`?
Cruzain inh noDet: 1%; LASV entry inh: 12%[46.1 µM]; Cruzain Triton: 3.3%; StopGo reporter: -8%

How did CCc1ccccc1N(CC)C(=O)Cn1nc(Cc2ccncc2)c2ccccc2c1=O do in these assays?
Cruzain inh noDet: 7%; Marburg entry inh: inconclusive; LASV entry inh: -6%[46.1 µM]; Cruzain Triton: -3.6%; StopGo reporter: -10%

Results for CCN1CCN(CC(=O)Nc2c(C(=O)OC)[nH]c3cccc(Cl)c23)CC1 ?
Cruzain inh noDet: 4%; SARS PLP yeast: 3%; Cruzain Triton: 0.4%; NS1 inh: 1%

How did N#CC1=C(N)Oc2nc(-c3ccccc3)[nH]c2C1c1cccnc1 (stereo not given) do in these assays?
Cruzain inh noDet: -8%; SARS PLP yeast: -9%; Marburg entry inh: -2%; LASV entry inh: -2%; RE007 growth inh: -5%; Cruzain Triton: -3.7%; StopGo reporter: 0%; NS1 inh: 11%

What do the screens show for `COCCNC(=O)C(c1cccs1)N(Cc1ccccc1)C(=O)Cn1nnc2ccccc21` (stereo not given)?
Cruzain inh noDet: 11%; SARS PLP yeast: -1%; Marburg entry inh: 2%[46.1 µM]; LASV entry inh: -2%; RE007 growth inh: -11%; Cruzain Triton: -2.3%; StopGo reporter: 3%; NS1 inh: 1%

How did COCCNc1oc(/C=C/c2ccccc2)nc1C#N do in these assays?
SARS PLP yeast: 1%; Marburg entry inh: 8%; LASV entry inh: inconclusive; RE007 growth inh: -2%; StopGo reporter: 65%[activator]; NS1 inh: -5%

How did O=C(Cc1ccc(Cl)cc1)Nc1cc(S(=O)(=O)N2CCOCC2)ccc1N1CCCC1 do in these assays?
SARS PLP yeast: -4%; Marburg entry inh: inconclusive; LASV entry inh: -27%; RE007 growth inh: -14%; StopGo reporter: -9%

What do the screens show for `CC(C)(C)OC(=O)NCCC(=O)N/N=C/c1ccc2ncccc2c1`?
SARS PLP yeast: -2%; Marburg entry inh: 6%; LASV entry inh: -17%; RE007 growth inh: -5%; StopGo reporter: 9%; NS1 inh: -6%

Results for COc1ccc(C2CC(C(F)(F)F)n3nc(CO)c(Cl)c3N2)cc1OC (stereo not given) ?
Cruzain inh noDet: -6%; SARS PLP yeast: 1%; Marburg entry inh: -24%; LASV entry inh: inconclusive; RE007 growth inh: -2%; Cruzain Triton: 5.1%; StopGo reporter: 15%; NS1 inh: 0%

Results for CCN(C(=O)CCC(=O)N(CC)c1ccccc1)c1ccccc1 ?
Cruzain inh noDet: -1%; SARS PLP yeast: 16%; Marburg entry inh: inconclusive; LASV entry inh: inconclusive; RE007 growth inh: 18%; Cruzain Triton: -1.2%; StopGo reporter: -16%; NS1 inh: 6%

Grouped by structure, the compounds so far with a furan ring, fused or not.
Results for Cc1ccc2nc3c(cc(S(=O)(=O)c4ccccc4)c(=N)n3Cc3ccco3)c(=O)n2c1 ?
SARS PLP yeast: 1%; Marburg entry inh: inconclusive; LASV entry inh: 2%[46.1 µM]; RE007 growth inh: -17%; StopGo reporter: 34%[activator]; NS1 inh: 4%

Results for COc1ccc(OC)c(C(O)c2coc3ccc(O)c(CN4CCOCC4)c23)c1 (stereo not given) ?
Cruzain inh noDet: 3%; SARS PLP yeast: 12%; Marburg entry inh: 16%; LASV entry inh: inconclusive; RE007 growth inh: 2%; Cruzain Triton: -0.6%; StopGo reporter: -5%; NS1 inh: inconclusive
